# Vaccinia Venus: qHTS for Stage-Specific Inhibitors of Vaccinia Orthopoxvirus: Venus Reporter Primary qHTS. Vaccinia virus Venus reporter expression, fluorescence. Potency, µM (series often up to 36.5 µM), for inactives: at the top dose activity change, negative = inhibition, hits mostly inhibitors. 330,000 tested, 0.46% active. AID 720580, 2013; active means well fitted inhibition curve with a large enough effect; inconclusive means small, poorly fitted or top-dose-only effect; inactive means no such curve, though single readings can be large or run the other way; tested in A549 cells; note: nearly all actives have a fitted effect of over 30% in size; inactives centre near -10
# Vaccinia mCherry: qHTS for Stage-Specific Inhibitors of Vaccinia Orthopoxvirus: mCherry Reporter Primary qHTS. Potency, µM (series often up to 36.5 µM), for the others: at the highest dose activity change, negative = inhibition, usual class: inhibitors. 310,000 tested, 0.63% active. Vaccinia virus mCherry reporter infection, fluorescence; about a quarter of the inactives have no number; active = well fitted inhibition curve with a large enough effect; inconclusive = small, poorly fitted or top-dose-only effect; inactive = no such curve, though single readings can be large or run the other way; tested in A549 cells; note: nearly all actives have a fitted effect of over 35% in size; inactives centre near -10
# An asterisk follows results filed as active; i = inactive; ? = inconclusive; / = no result given; & = joins results of further samples; [ ] = remark or other dose. % is set by controls: 0 for no effect and ±100 for the full control effect; potency is the fitted concentration of half-maximal effect.
# A first look:
structure	Vaccinia Venus	Vaccinia mCherry
COCCn1c(=NC(=O)c2cc(-c3cccs3)nc3ccccc23)sc2cc(S(N)(=O)=O)ccc21	?	?
COc1ccc([C@@H]2CC(=O)[C@@H]3CN(S(=O)(=O)c4ccc(C)cc4)[C@H](c4cccc(Cl)c4)C[C@@H]3N2S(=O)(=O)c2ccccc2)cc1	-10.2%	30.8%[activator]

# Results, from the first entry:
structure	Vaccinia Venus	Vaccinia mCherry
COCCn1c(=NC(=O)c2cc(-c3cccs3)nc3ccccc23)sc2cc(S(N)(=O)=O)ccc21	?	?
COc1ccc([C@@H]2CC(=O)[C@@H]3CN(S(=O)(=O)c4ccc(C)cc4)[C@H](c4cccc(Cl)c4)C[C@@H]3N2S(=O)(=O)c2ccccc2)cc1	-10.2%	30.8%[activator]
CCCCOc1ccc(C(=O)NCc2nnnn2-c2ccc(C)c(C)c2)cc1	-12.4%	-9.0%
O=C(NC1CCCCC1)c1ccc(CSc2nc3ccncc3n2Cc2ccc(F)cc2)cc1	?	?
COc1ccc(CCNC(=O)c2cccc(-n3cnc4cccnc43)c2C)cc1OC	-3.9%	-8.5%
CCSc1nc(COC(=O)NC)c(COC(=O)NC)n1C	-12.3%	-17.0%
O=C(CCCCCNC(=O)c1ccccc1Cl)N/N=C/c1ccco1	4.3%	i
COc1ccc(NC(=O)c2ccccc2NC(=O)c2ccccc2)cc1	-5.9%	i
CCOc1ccccc1-n1c(=O)c2ccccc2c2ccccc2c1=O	1.4%	-11.5%
CCN(CC(=O)Nc1ccc(NC(C)=O)cc1)C(=O)c1ccc(NC2CC2)c([N+](=O)[O-])c1	-16.1%	2.5%
CCC(CCC(=O)Nc1cccc([N+](=O)[O-])c1)C(=O)O (centres undefined)	-2.1%	i
COCCn1cnc2c1c(=O)n(Cc1ccc(C#N)cc1)c(=O)n2Cc1ccccc1	2.3%	-6.3%
CN(C)CCC=C1c2ccccc2C=Cc2ccccc21	-16.1%&-11.2%	-9.0%&-19.6%
O=C(CCC1CCCN(Cc2ccc3c(c2)OCCO3)C1)NCc1ccccc1F (centres undefined)	-16.5%[7.34 µM]	-20.6%[7.34 µM]
Nc1c([N+](=O)[O-])c(=O)sc2ccccc12	-16.1%	-23.4%

structure	Vaccinia Venus	Vaccinia mCherry
Cc1ncc(CN2CCCC(C(=O)Nc3ccc(-n4ccnc4C)cc3)C2)cn1 (centres undefined)	-6.1%	-25.5%
O=C(COc1ncnc2ccccc12)N1CCN(S(=O)(=O)c2ccccc2)CC1	-9.4%	-14.6%
CNC(=O)COC(=O)CCC(=O)c1ccc(Cl)cc1	-3.4%	i
COc1cccc(CN(C)C(=O)c2ccc(S(=O)(=O)Nc3ccccc3C)cc2)c1OC	-18.6%	-10.7%
Cc1cc(C(=O)NCC2CCC3(CCN(Cc4cc(F)ccc4F)CC3)O2)n(C)n1 (centres undefined)	-11.3%	-19.6%
O=C(O)CCC(=O)NCc1ccc2[nH]c3c(c2c1)CCCC3	-12.0%	i
COc1cc(CNc2ccc(N3CCN(C(C)=O)CC3)cc2)ccc1OCc1ccc(F)cc1	-25.9%	?
Cc1cc(C)c2c(n1)nn1c(C)c(CCC(=O)NCc3ccccc3Cl)c(C)nc21	-9.5%	9.8%
Cc1cccc(-n2c3nc(=O)n(C)c(=O)c-3cc3ccc(Cl)cc32)c1C	0.7%	-2.2%
O=c1c2nnn(-c3cccc(F)c3)c2ncn1Cc1ccccn1	-3.3%	i
CC1=C(C(N)=O)C(c2ccccc2)n2nc(-c3cccs3)nc2N1 (centres undefined)	-5.6%	-5.0%
O=C(COc1ccccc1F)Nc1ccccc1OCc1cc(=O)n2ccccc2n1	-6.3%	i
CS(=O)(=O)N1CCc2cc(C(=O)Nc3cccc([N+](=O)[O-])c3)ccc21	-10.7%	-12.5%
COc1ccc(-c2cccc(NS(=O)(=O)c3cc([N+](=O)[O-])c(C)c([N+](=O)[O-])c3)c2)nn1	-10.1%	-14.6%
Nn1cnnc1N/N=C\c1ccc(-c2ccccc2[N+](=O)[O-])o1	-26.0%	?

structure	Vaccinia Venus	Vaccinia mCherry
Cc1ccc(-n2ncc(C(=O)N3CCN(c4ncccn4)CC3)c2C2CCN(C(=O)OC(C)(C)C)CC2)cc1	-16.0%	-22.1%
COc1ccc(-n2ccnc2)cc1	-3.0%	i
CN(C)C(CNC(=O)c1ccc(NS(=O)(=O)c2ccc3[nH]c(=O)[nH]c3c2)cc1)c1ccccc1 (centres undefined)	-10.3%	-13.7%
O=C(/C=C/c1ccc(Cl)cc1)Nc1ccc(CN2CCOCC2)cc1	-21.2%	i
CC(NC(=O)Nc1ccccc1C(F)(F)F)c1c(-n2cccc2)sc2c1CCCC2 (centres undefined)	-8.2%	-2.8%
Cc1cccn2c1nc(=S)n2C(=O)c1ccco1	-12.4%	i
COc1ccc(S(=O)(=O)Nc2ccc(N3CCOCC3)cc2)cc1[N+](=O)[O-]	-21.0%	-8.6%
CC(C)(C)c1ccc(S(=O)(=O)N2C=CC(C(F)(F)F)=NCC2)cc1	-15.6%	-16.3%
COc1cc(C=O)ccc1OC(=O)c1ccc(C(C)C)cc1	-15.7%	-15.6%
Cc1cc(C)cc(OCC(=O)Nc2cc(NC(=O)COc3cc(C)cc(C)c3)cc(C(=O)O)c2)c1	-14.6%	-0.2%
COc1ccccc1NC(=O)N(C)C[C@H]1OCc2cn(nn2)CCCC(=O)N([C@@H](C)CO)C[C@@H]1C	-5.8%	i
S=c1[nH]nc(C2CCCCC2)o1	-0.4%	-0.3%
CCN1CCN(C(CNS(=O)(=O)c2ccc(OC)c(C)c2)c2cccnc2)CC1 (centres undefined)	-5.9%	0.4%
O=C(Nc1ccc(S(=O)(=O)Nc2ccccc2F)cc1)N1CCCCC1	-5.4%	-8.5%
CN(C)S(=O)(=O)c1ccc(N2CCCC2)c(C(=O)NCC(=O)Nc2ccc(F)c(F)c2)c1	-23.6%	?

structure	Vaccinia Venus	Vaccinia mCherry
O=C(Cn1c(=O)sc2ccccc21)Nc1ccccc1C(=O)O	-11.0%	-13.8%
Cc1ccc(S(=O)(=O)NN2Cc3ccccc3C2=N)cc1	-9.1%	-16.9%
Cc1cc(NC(=O)N2CC=C(c3c[nH]c4ccccc34)CC2)ccc1Br	-14.6%	-20.5%
CC(C)OCCCNC(=O)CN1C(=O)COc2ccc(S(=O)(=O)N3CCOCC3)cc21	-10.3%	2.1%
Cc1sc(NC(=O)CN(Cc2ccc(F)cc2)C(=O)C(C)(C)C)c(C(N)=O)c1C	-6.3%	i
CCCNC(=O)C1(C)CCCN(Cc2ccc(C)cc2)C1 (centres undefined)	2.7%	2.6%
COC(=O)c1ccc(N=NN2CCCCCC2)cc1	-19.6%	i
CC(=O)NC(c1ccc(C)cc1)c1cc([N+](=O)[O-])c2cccnc2c1O (centres undefined)	?	12.6µM*
CCCCc1cc(-c2n[nH]c(=S)o2)c2ccccc2n1	-18.1%	-19.7%
Cc1cccc(N2C(=O)NC(=O)/C(=C\c3ccc(N4CCOCC4)cc3)C2=O)c1	-4.7%	i
CC(=O)NC(c1ccc(C(C)C)cc1)c1c(O)ccc2ccccc12 (centres undefined)	-28.0%	-24.9%
COc1ccccc1C(=O)Nc1ccc(Br)cc1C	-8.0%	-12.4%
CN(C)c1ccc(C(=O)OCC(=O)NCCC2=CCCCC2)cc1	-9.7%	i
CN(C)C(CNC(=O)CCC(=O)c1ccc(Br)cc1)c1ccccc1 (centres undefined)	-3.7%	i
CC1(O)CC(c2ccc(Cl)cc2)=NN1C(=O)c1ccc([N+](=O)[O-])cc1 (centres undefined)	-19.6%	-27.1%

structure	Vaccinia Venus	Vaccinia mCherry
COC(=O)C1CCN(C(=O)CN2C(=O)NC3(CCC(C)CC3)C2=O)CC1 (centres undefined)	-17.4%	-6.6%
Clc1ccc(/C=C\c2nccc3c2[nH]c2ccccc23)cc1	-25.2%	?
Cc1ccc(NS(=O)(=O)c2c(C)[nH]c(=O)[nH]c2=O)c(C)c1	-9.4%	-6.1%
COc1ccccc1Nc1nc(-c2sc(NC(=O)c3ccco3)nc2C)cs1	-27.3%	?
c1ccc2c(OCCCCN3CCOCC3)cccc2c1	-11.8%	-14.7%
CCc1nccn1CCC(=O)N1CCCC(Nc2ccc(C(C)C)cc2)C1 (centres undefined)	-16.1%	-1.6%
COc1cc2oc(=O)ccc2c(OC)c1CC(O)C(C)(C)O (centres undefined)	-3.0%	-3.5%
CCOc1cccc(C(=O)NC(c2ccccc2)C(C)C)c1 (centres undefined)	-9.4%	-2.5%
CC1(C)CN(C2CCCCC2)C(=O)[C@H]1CC(=O)Nc1ccccc1	-16.0%	i
CC(=O)N1CCc2cc(S(=O)(=O)CCC(=O)N3CCN(c4cccc(C)c4C)CC3)ccc21	-12.8%	-15.4%
CCCNC(=O)c1c(NC(=O)C2COc3ccccc3O2)sc2c1CCCC2 (centres undefined)	-12.3%	/
CCCCNC(=O)Nc1ccnn1C1CCCCC1	0.2%	i
c1ccc(CSc2nnc(-c3ccccn3)n2-c2ccccc2)cc1	-14.5%	-14.6%
COc1ccc(CNCc2ccc(C)cc2)c(OC)c1	-14.6%	i
Cc1ccc(C)c(NC(=O)Cc2coc3cc(C)cc(C)c23)c1	-5.8%	0.4%

structure	Vaccinia Venus	Vaccinia mCherry
CC(C)C1C(=O)N(Cc2cn(CCC3OCCO3)nn2)CCS(=O)(=O)N1Cc1ccc(-c2cccc(N(C)C)c2)cc1 (centres undefined)	-28.4%	-20.4%
Cc1ccccc1Nc1nnc(SCC(=O)Nc2ncc(C(F)(F)F)cc2Cl)s1	-12.5%	-10.5%
COC(=O)c1ccccc1NC(=O)CSc1nc2ccsc2c(=O)n1CCCCC(=O)O	-0.3%	5.2%
CC1Cc2ccccc2N1S(=O)(=O)c1cccc(C(=O)OCC(=O)N2CCOCC2)c1 (centres undefined)	12.1%	i
COc1ccc(CNC(=O)CNC(=O)c2sc3ccccc3c2Cl)cc1OC	-13.3%	i
CC(=O)c1sc(NC(=O)C(C)(C)C)nc1C	-7.9%	/
COc1cc(CNc2nc(C)c([N+](=O)[O-])c(C)c2C#N)cc(OC)c1OC	-14.8%	-3.6%
CSc1nccc(-c2cc(Cl)sc2Cl)n1	-7.0%	/
NC(N)=NCCCC(NC(=O)c1ccccc1)C(=O)Nc1ccc([N+](=O)[O-])cc1 (centres undefined)	-11.8%	-14.6%
COc1ccc(-c2onc(C)c2C)cc1S(=O)(=O)NC1CCCCC1	?	-27.9%
O=C(OCc1ccc(Br)cc1)c1cccc(S(=O)(=O)N2CCCC2)c1	-13.4%	i
O=C(/C=C/Nc1ccc(Oc2ccccc2)cc1)c1ccco1	-16.9%	?
CCCN(CCC(=O)Nc1cc(OC)cc(OC)c1)CC1CC1	-10.7%	/
CCC(Sc1ccc2nnc(CCNS(=O)(=O)c3ccc(OC)cc3)n2n1)C(=O)OC (centres undefined)	-8.8%	-6.6%
COc1ccc(-c2csc(N(CCCN(C)C)C(=O)c3ccc(F)cc3)n2)cc1	-7.5%	-21.7%

structure	Vaccinia Venus	Vaccinia mCherry
Cc1cccc(C(=O)OCc2cncs2)c1	-8.3%	i
COCCNc1nc2cc(-c3ccccc3OC)sc2c(=O)n1C	-5.0%	i
CCN(C(=O)COC(=O)/C=C/c1c(C)nn(-c2ccccc2)c1C)c1c(N)n(Cc2ccccc2)c(=O)[nH]c1=O	-11.3%	-1.1%
COc1ccc(Br)cc1CNC(=O)CN1C(=O)C(c2ccccc2)Oc2cccnc21 (centres undefined)	-7.1%[7.34 µM]	-19.0%[7.34 µM]
CCN1CC(C)(C)N(C(=O)c2ccccc2)CC1(C)C	-8.3%	i
CCn1ncc(C2=NOC(C(=O)Nc3ccc(C)cc3)C2)c1C (centres undefined)	-16.7%	-15.6%
Cc1cccc(-n2c(O)c(C=NC3CCS(=O)(=O)C3)c3ccccc3c2=O)c1 (centres undefined)	-4.5%	/
Cc1ccc(Cc2c[nH]c(=S)s2)cc1	-7.9%	-9.8%
CCN1CCc2c(sc(NC(=O)c3ccc(S(=O)(=O)N(C)C4CCCCC4)cc3)c2C(N)=O)C1	-16.5%	-13.0%
O=C(C1CCN(c2nc3ccccc3[nH]2)CC1)N1CCN(c2cccc(Cl)c2)CC1	-5.4%[7.34 µM]	-4.9%[7.34 µM]
CSc1nc(-c2ccco2)nn1S(C)(=O)=O	-4.4%	-20.2%
Clc1cccc(C2CCN(Cc3nc(COc4ccccc4)no3)C2)c1 (centres undefined)	-4.6%	-9.2%
O=C(O)c1cccc(NS(=O)(=O)c2ccc(Oc3ccc(S(=O)(=O)Nc4cccc(C(=O)O)c4)cc3)cc2)c1	-12.3%	i
NC(=O)COc1ccc(/C=N/NC(=O)C2CCCN2S(=O)(=O)c2ccc(Cl)cc2)cc1 (centres undefined)	-9.4%	/
CCCCn1c(-c2ccc([N+](=O)[O-])cc2)n[nH]c1=S	-10.3%	/

structure	Vaccinia Venus	Vaccinia mCherry
CCCOc1ccc(-c2cccc(NS(=O)(=O)c3ccccc3)c2)nn1	-16.2%	-14.2%
COc1cc(NC(=O)CSc2nnc(-c3cc(C)on3)o2)cc(OC)c1	-4.7%	-11.2%
Cc1ccccc1/C=C(\C#N)c1nc(-c2ccc(Cl)cc2)cs1	-3.4%	2.4%
O=C(COC(=O)c1cccc(S(=O)(=O)N2CCCCCC2)c1)Nc1ccccc1	-7.7%	i
